Screening results from PubChem.
AmpC inh no det – blocks E. coli AmpC beta-lactamase in absence of detergent; P00811; Potency, µM (series often up to 28.7 µM), inactives show top-dose activity change, negative = inhibition; AmpC nitrocefin hydrolysis, absorbance 480 nm, no detergent; potencies from a single point are estimates; 71,000 compounds, 1.8% hits; AID 585; active = falling curve, for most hits resting on a single point; inconclusive = weak or doubtful change; inactive = flat or rising curve; note: % of control where 0% means no effect; about half of the hits show no inhibition at the top dose; a quarter of the inactives give rising signals
Target sequence (P00811 whole entry, looked up): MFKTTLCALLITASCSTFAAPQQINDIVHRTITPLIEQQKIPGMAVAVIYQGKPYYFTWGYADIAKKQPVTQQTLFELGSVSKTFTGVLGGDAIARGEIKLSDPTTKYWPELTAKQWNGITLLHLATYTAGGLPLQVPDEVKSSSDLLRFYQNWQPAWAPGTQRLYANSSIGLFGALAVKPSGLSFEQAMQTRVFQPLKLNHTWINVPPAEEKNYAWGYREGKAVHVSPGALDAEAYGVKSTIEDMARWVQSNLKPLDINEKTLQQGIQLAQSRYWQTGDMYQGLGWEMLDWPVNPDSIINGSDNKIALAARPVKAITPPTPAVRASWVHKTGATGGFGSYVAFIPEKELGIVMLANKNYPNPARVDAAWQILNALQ
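Enzyme, pH 7.0 phosphate. Compound titrations were pre-incubated with AmpC for 15 min at room temperature before nitrocefin (stock 800 uM) addition; product formation was recorded at 480 nm every 20 s for 4 min.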
An asterisk follows results filed as active; [ ] = dose if it differs, or a comment. Potency is the fitted concentration of half-maximal effect. This is a subset; count on the stated rates, not on these rows.

The opening four compounds, ahead of the listing:
SMILES	AmpC inh no det
CC1(C)CSC(Nc2ccc(F)c(Cl)c2)=N1	-1.9%
CCN(CC)CC(=O)Nc1cc(C)c2c(=O)oc3ccccc3c2n1	5.8%
CN1CCN(c2ncncc2-c2ccccc2C(F)(F)F)CC1	12.5%
CC(C)=C1C2C=CC1C(C(=O)Nc1cccc(C)c1)C2C(=O)O (centres undefined)	-8.3%

Main list, from the first entry:
SMILES	AmpC inh no det
CC1(C)CSC(Nc2ccc(F)c(Cl)c2)=N1	-1.9%
CCN(CC)CC(=O)Nc1cc(C)c2c(=O)oc3ccccc3c2n1	5.8%
CN1CCN(c2ncncc2-c2ccccc2C(F)(F)F)CC1	12.5%
CC(C)=C1C2C=CC1C(C(=O)Nc1cccc(C)c1)C2C(=O)O (centres undefined)	-8.3%
CC(C)C(c1nnnn1Cc1ccccc1)N1CCN(Cc2ccco2)CC1 (centres undefined)	50.0%
Cc1ccccc1-c1nc(CN2CCC(C(=O)O)CC2)c(C)o1	7.2%
O=C(OC(C(=O)NC1CCCC1)c1ccccc1F)c1ccco1 (centres undefined)	61.6%
CN(C)C(N)=NCCC[C@H](N)C(=O)O	-1.3%
COc1ccc2c(c1OC)C(=O)OC2Nc1ccccn1 (centres undefined)	-0.2%
Cc1cc(NC(=O)CCCOc2ccc(Cl)cc2Cl)no1	-15.9%
O=C(Nc1ccccn1)c1cccnc1	-3.4%
Cc1c(N(C)C(=O)C23CC4CC(CC(C4)C2)C3)c(=O)n(-c2ccccc2)n1C	31.2%
COC(=O)c1ccc(C(=O)OC)c(NC(=O)CN2CCN(c3ccccc3)CC2)c1	43.1%
COc1ccc(C2C(C(C)=O)=C(C)N=c3s/c(=C\c4ccc5c(c4)OCO5)c(=O)n32)c(OC)c1 (centres undefined)	14.1%
CC(=O)NC1=C(OS(=O)(=O)c2ccc(C)cc2)CN(C)C1=O	-2.3%[5.75 µM]
COC(=O)C(C)Sc1nnc2n(-c3cccc(C)c3)c(=O)c3c4c(sc3n12)CCCC4 (centres undefined)	43.0%
CCOC(=O)CCCCC(=O)c1[nH]c(=O)[nH]c1CSc1nc(C)cc(=O)[nH]1	8.3%
CCOC(=O)c1cc(OCC(=O)NC(C)C(C)C)cc(C(=O)OCC)c1 (centres undefined)	72.5%
CCN(CC(=O)Nc1c(C(=O)OC)[nH]c2ccc(Cl)cc12)c1ccc2c(c1)OCO2	16.8%
CCOc1ccc2[nH]c(=O)c(CN(CCO)C(=O)c3ccc(F)cc3)cc2c1	18.6%
CC1(C)C(=O)C(c2ccccc2)=C2CN3C(=O)N(CCc4ccccc4)C(=O)C3(Cc3ccccc3)C=C21 (centres undefined)	28.5%
Cc1cnc(NC(=O)c2ccc3c(c2)C(=O)N(Cc2ccco2)C3=O)s1	-10.1%
COc1cccc2cc(C(=O)NCC3CCCO3)c(=O)oc12 (centres undefined)	12.2%
Cn1nc(C(=O)N2CCCC2)c2ccccc2c1=O	0.4%
COc1ccc(N(CC(=O)N2CCc3ccccc32)S(=O)(=O)c2c(C)noc2C)cc1	28.2%

A portion taken from the entries so far, for reference:
SMILES	AmpC inh no det
CCN(CC)CC(=O)Nc1cc(C)c2c(=O)oc3ccccc3c2n1	5.8%
CN1CCN(c2ncncc2-c2ccccc2C(F)(F)F)CC1	12.5%
CC(C)=C1C2C=CC1C(C(=O)Nc1cccc(C)c1)C2C(=O)O (centres undefined)	-8.3%
CC(C)C(c1nnnn1Cc1ccccc1)N1CCN(Cc2ccco2)CC1 (centres undefined)	50.0%
Cc1ccccc1-c1nc(CN2CCC(C(=O)O)CC2)c(C)o1	7.2%
O=C(OC(C(=O)NC1CCCC1)c1ccccc1F)c1ccco1 (centres undefined)	61.6%

(cont.)
SMILES	AmpC inh no det
CCn1c(COc2ccccc2C)nnc1SCC(=O)Nc1cc(C)on1	-17.5%
O=C(NC1(C(F)(F)F)Oc2ccc(Cl)cc2O1)N1CCC2(CC1)OCCO2 (centres undefined)	0.8%
CC(=C/C(=O)O)/C=C/c1cccs1	3.8%
Cc1cccc(N(C(=O)Cn2nnc3ccccc32)C(C(=O)NCc2ccco2)c2ccncc2)c1 (centres undefined)	52.7%
CCOc1ccc2c(c1)C(C)=CC(C)(C)N2	4.5%
O=C(O)c1cccc(S(=O)(=O)N2CCCC2)c1	-6.2%
O=C1CCCc2c1cc(C(=O)NC1CCSC1=O)c(=O)n2-c1ccccc1 (centres undefined)	21.1%
O=C(CN1CCN(S(=O)(=O)/C=C/c2ccccc2)CC1)NC(=O)NCc1ccco1	62.6%
CC(=O)Nc1cc(-c2ccccc2)ccc1O	-12.8%
CCOC(=O)c1c(C)c(C(=O)NC2CCCCC2)c(C)n1CC	32.2%
COCCn1c(=S)[nH]c2ccc(N(C)C)cc2c1=O	-0.8%
Cc1cc(C)n2nc(SC(C)C(=O)NCc3ccco3)nc2n1 (centres undefined)	2.7%
O=c1cnc2cnc(Oc3ccccc3)nc2n1C1CC1	15.8%
Cc1cc(=O)oc(C)c1C(=O)Nc1cnc2ccccc2c1	8.0%
O=C(NCc1n[nH]c(=S)n1-c1ccccc1)c1ccco1	4.8%
CN(C/C(O)=C(\C#N)c1ccccc1)C1CCCCC1	-5.1%
CCCCCn1c(SCc2ccncc2)nc2cc(C(=O)NCc3ccco3)ccc2c1=O	45.7%
CC1=C(C(=O)OCc2ccccc2)C(c2ccc([N+](=O)[O-])cc2)NC(=O)N1CCCCCC(=O)O (centres undefined)	38.6%
CC1CCC2CC1C2(C)C (centres undefined)	-1.7%
CCOc1ccccc1OCCn1nnc2ccccc21	8.0%
CCOC(=O)C(/C(N)=N/C(=O)Nc1ccccc1)=C(\C)O	6.0%
CCN1C(=O)N(CC)C(O)(c2ccccc2)C1(O)c1ccccc1 (centres undefined)	28.1%
CNc1oc(Cc2ccccc2)nc1S(=O)(=O)c1ccc(Cl)cc1	1.6%
CC(OC(=O)c1ccncc1)C(=O)Nc1cccc(Cl)c1 (centres undefined)	12.8%
CCN1CCN(C(=O)c2cn(CC)c3ccc(S(=O)(=O)N(C)C)cc3c2=O)CC1	-11.3%

Quoted from the listing.
AmpC inh no det, Cc1cccc(N(C(=O)Cn2nnc3ccccc32)C(C(=O)NCc2ccco2)c2ccncc2)c1 (centres undefined) : 52.7%
AmpC inh no det, CCCCCn1c(SCc2ccncc2)nc2cc(C(=O)NCc3ccco3)ccc2c1=O : 45.7%
AmpC inh no det, O=C(NC1(C(F)(F)F)Oc2ccc(Cl)cc2O1)N1CCC2(CC1)OCCO2 (centres undefined) : 0.8%
AmpC inh no det, O=c1cnc2cnc(Oc3ccccc3)nc2n1C1CC1 : 15.8%
AmpC inh no det, CCOc1ccccc1OCCn1nnc2ccccc21 : 8.0%

Remaining list, next part.
SMILES	AmpC inh no det
COc1ccc(OC)c(C2C3=C(CCCC3=O)Nc3nc4ccccc4n32)c1 (centres undefined)	2.7%
CCNc1cc2oc(=O)c(CN3CCOCC3)c(C)c2cc1C	24.0%
O=C(O)CSc1nnc(-c2ccco2)o1	2.4%
Cc1ccccc1NS(=O)(=O)c1ccc(OCC(=O)NCc2ccco2)cc1	-5.6%
COP(=O)(/C=C/c1ccccc1)C(O)c1ccc(F)cc1 (centres undefined)	17.9%
Cc1cc(N2C(=O)C(O)=C(C(=O)c3ccc(C)o3)C2c2cccs2)no1 (centres undefined)	-20.4%
O=C(CN1CCCC1)Nc1ccc(-c2nc3cc(NC(=O)CN4CCCC4)ccc3o2)cc1	13.6%
Brc1cc(Br)c(Oc2cc(Br)c(Br)cc2Br)cc1Br	-17.9%
CNC(=O)CSCc1c(Cl)cccc1Cl	1.4%
Cc1ccc(N=Nc2c(O)c(S(=O)(=O)O)cc3cc(S(=O)(=O)O)ccc23)c(C)c1	-9.0%[5.75 µM]
COc1ccc(NC(=O)N2CC3(CCN(C(=O)c4ccncc4)CC3)C2)cc1	11.5%
CCOc1cc(C2C(C#N)=C(N)OC(C)=C2C(C)=O)cc(Br)c1O (centres undefined)	-11.9%
CCCCCOc1ccc(/C=c2\sc3ncnn3c2=O)cc1	55.1%
O=S(=O)(CCOc1ccccc1)c1nc2ccccc2[nH]1	-2.8%
CCOC(=O)c1ccc(NC(=O)c2ccc(CN3CCOCC3)cc2)cc1	58.3%
Cc1cc(C)c2cc(C#N)c(N3CCCC3)nc2c1	44.9%
O=C(CSCc1c(F)cccc1Cl)NCc1ccco1	6.0%
CCc1ccccc1NC(=O)CSC1=C(C#N)C(c2ccc3c(c2)OCO3)C2=C(CCCC2=O)N1 (centres undefined)	-3.3%
C[N+]1([O-])[C@@H]2CC[C@H]1CC(OC(=O)[C@@H](CO)c1ccccc1)C2 (some centres undefined)	-3.1%[12.8 µM]
C=CCn1c(N)c(C(=O)NCc2cccnc2)sc1=S	3.4%
CNc1nc(Oc2ccccc2C(=O)OC)nc(SC)n1	-0.7%
O=C(Nc1ccc(CN2CCOCC2)cc1)c1cc2ccccn2n1	14.4%
CCOc1ccc(Cl)cc1S(=O)(=O)n1nnc2ccccc21	6.1%
Cc1nnc(SCC(=O)Nc2ccc(N3CCOCC3)cc2)o1	-4.2%
COc1ccc(C(=O)c2ccccc2O)c(O)c1	-2.1%[12.8 µM]
SMILES	AmpC inh no det
CC(C)[C@H](NC(=O)Nc1ccc(S(N)(=O)=O)cc1)C(=O)O	-0.3%
O=C(NC1CCCCCC1)C1c2ccccc2C(=O)N1C1CC1 (centres undefined)	-8.2%
COC(=O)c1[nH]c2cccc(C)c2c1NC(=O)CN1CCN(C(=O)c2ccco2)CC1	42.2%
Cc1ccc(OCC(=O)Nc2ccc(N(C)C)cc2)cc1	-5.7%
Brc1ccc(CSc2nnc(-c3cnccn3)n2Cc2ccco2)cc1	89.4%
CC(Oc1ccc(-c2ccccc2)cc1)C(=O)N1CCOCC1 (centres undefined)	50.5%
CCOC(=O)c1[nH]c(C)c(C(=O)NC(C)CC)c1C (centres undefined)	8.0%
Cc1cccc(Cn2cnc3c(nnn3Cc3ccc(F)cc3)c2=O)c1	7.5%
CN1CCN(C(=O)CC23CC4CC(CC(C4)C2)C3)CC1	11.8%
COC(=O)[C@H](C)NC(=O)Nc1ccc(OC)cc1OC	3.3%
CCC1(CC)NC(=O)NC1=O	-6.7%
CCOC(=O)Cn1cnc2c(nnn2Cc2ccc(Cl)cc2)c1=O	11.2%
O=C1CCCc2c1cc(C(=O)NCCCN1CCOCC1)c(=O)n2-c1ccc(Cl)cc1	71.6%
O=C(CSc1ncc(-c2ccccc2)nn1)NCc1ccco1	-8.0%
O=C(Nc1nnc(COc2ccc(Cl)cc2)s1)C1CCCO1 (centres undefined)	28.4%
CN(C)c1ccnc(NCc2ccccc2)c1C#N	-0.2%
O=C(CCN1C(=O)c2ccccc2C1=O)Nc1ccc(F)cc1	-3.9%
COC(=O)Nc1sc2c(c1C(=O)NCc1ccco1)CCCC2	4.7%
Cn1c(C(=O)N2CCN(Cc3ccc4c(c3)OCO4)CC2)cc2c(=O)n(C)c3ccccc3c21	149.7%
CC(C)(C)n1nnnc1CN1CCN(C2CCCC2)CC1	-5.5%
CCC(=O)n1nc(-c2ccco2)nc1SCc1ccccc1	3.5%
COC(=O)c1ccccc1N=C(SC)N(C)C	6.2%
CCCN1C(=O)c2ccc(C(=O)Nc3nccs3)cc2C1=O	-22.8%
O=C(NCCN1CCCCC1)c1cc2ccccc2[nH]1	11.0%
COc1ccc(C(=O)CSc2n[nH]c(-c3ccco3)n2)cc1	-14.3%

Quoted at random: 3 entries already listed, in no set order.
SMILES	AmpC inh no det
COc1ccc(C(=O)CSc2n[nH]c(-c3ccco3)n2)cc1	-14.3%
CCOC(=O)Cn1cnc2c(nnn2Cc2ccc(Cl)cc2)c1=O	11.2%
O=C(NCCN1CCCCC1)c1cc2ccccc2[nH]1	11.0%

(more compounds)
SMILES	AmpC inh no det
c1ccc(C(c2ccccc2)N2CCCC3(CCNCC3)C2)cc1	46.2%
CCCCN(CC)CCCNC(=O)Cn1nc(Cc2ccncc2)c2ccccc2c1=O	-16.1%
Cc1nc(Nc2nc3ccccc3o2)nc2c1CCC2	1.0%
Cc1oc(-c2ccc(Cl)cc2)nc1CN1CCCC(C(=O)NCCCN2CCOCC2)C1 (centres undefined)	114.9%
CCOC(=O)c1ccc(NC(=O)Cn2nnc(-c3ccc(C)cc3)n2)cc1	2.0%
CCN(CC)C(=O)C1CC(=O)OC1(C)C (centres undefined)	2.8%
O=C1CCCC2=C1C(c1c(Cl)nc3sccn13)C1=C(CCCC1=O)N2	-1.0%
O=C(NC1CCCC1)C(c1cccs1)N(Cc1ccco1)C(=O)c1csnn1 (centres undefined)	7.2%
